Bioassay records from PubChem BioAssay.
Menin MLL FP FL: inhibitors of human menin-MLL interaction, wild-type MLL peptide | AID 1766 | 290,000 tested, under 10 active | FP activity change, % at 61.4 µM | Fluorescence polarization, fluorescein-MLL peptide displacement from menin; inconclusive = falling polarisation curve, or a change in total fluorescence; inactive = total fluorescence flat and polarisation flat or rising; no compound was filed as active; the % refers to the polarisation; negative = inhibition;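 further: % of control where 0% means no effect; inhibitors lower the polarisation; unlabelled MLL peptide was the positive control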
ClpP mod: qHTS Assay for Activators of ClpP; purified B. subtilis ClpP, FRET peptide cleavage, 20 min; Potency, µM (top dose mostly 57.5 µM), for the others: at the highest dose activity change, negative = active; hit rate 1.9% among 340,000; AID 651965, 2013; active = well fitted falling curve with a large enough effect; inconclusive = small, poorly fitted or top-dose-only effect; inactive = no such curve, though single readings can be large or run the other way; further: potency means the concentration at half of the fitted maximal effect; the source files actives as falling curves though it sought activators and does not explain the sign; nearly all actives have a fitted effect of over 65% in size; many hits overshoot -100%
Target sequence (P80244 whole entry, looked up): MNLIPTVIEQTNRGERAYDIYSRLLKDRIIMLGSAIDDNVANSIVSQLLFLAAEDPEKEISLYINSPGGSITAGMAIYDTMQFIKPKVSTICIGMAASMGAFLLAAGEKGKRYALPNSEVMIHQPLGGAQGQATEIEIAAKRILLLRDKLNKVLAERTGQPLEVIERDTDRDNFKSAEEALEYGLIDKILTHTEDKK
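FRET quenching reversal measured ClpP activation: 10 microg/mL B. subtilis ClpP at pH 8 with the FRET-FV decapeptide, read at 430 nm after 320 nm excitation. The 20-min minus 0-min signal was scaled between DMSO/no-enzyme wells and ADEP (5.8 microM final).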
TRPML1 inh: blocks the human TRPML1 channel; activity change, negative = inhibition, % (no concentration beside the values); hit rate 0.02% among 390,000; TRPML1-inducible cells, Ca2+ dye fluorescence, FDSS; hits give low values; inhibition of EC80 agonist-evoked calcium signal; in the data active means activity change below about -50%; inconclusive means about -30% to -50%; inactive means above about -30%;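 further: stimulus is agonist 54-4 at its EC80 concentration; on the % scale 0 is the no-effect control and ±100 the full control effect; compound concentration not given in the record; the text of the record puts the active cut at -80%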
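Tet-induced TRPML1-DL cells loaded with Ca8 no-wash calcium dye were read kinetically on FDSS. Compound addition was followed by EC80 agonist 54-4 (4 uM final); inhibition was read over 110 s.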
TRPV1 PAM: human TRPV1 potentiation; Q8NER1; TRPV1-expressing cells, Fluo-8 calcium influx, capsaicin EC20 potentiation; host cell line not named in the record; control for the full effect not named in the record; potentiation, % at 8.33 µM; hit rate 0.02% among 320,000; active means potentiation above 80%; inconclusive means 30% to 80%; inactive means below 30%; further: 0% is about no effect
Target sequence (Q8NER1 whole entry, looked up): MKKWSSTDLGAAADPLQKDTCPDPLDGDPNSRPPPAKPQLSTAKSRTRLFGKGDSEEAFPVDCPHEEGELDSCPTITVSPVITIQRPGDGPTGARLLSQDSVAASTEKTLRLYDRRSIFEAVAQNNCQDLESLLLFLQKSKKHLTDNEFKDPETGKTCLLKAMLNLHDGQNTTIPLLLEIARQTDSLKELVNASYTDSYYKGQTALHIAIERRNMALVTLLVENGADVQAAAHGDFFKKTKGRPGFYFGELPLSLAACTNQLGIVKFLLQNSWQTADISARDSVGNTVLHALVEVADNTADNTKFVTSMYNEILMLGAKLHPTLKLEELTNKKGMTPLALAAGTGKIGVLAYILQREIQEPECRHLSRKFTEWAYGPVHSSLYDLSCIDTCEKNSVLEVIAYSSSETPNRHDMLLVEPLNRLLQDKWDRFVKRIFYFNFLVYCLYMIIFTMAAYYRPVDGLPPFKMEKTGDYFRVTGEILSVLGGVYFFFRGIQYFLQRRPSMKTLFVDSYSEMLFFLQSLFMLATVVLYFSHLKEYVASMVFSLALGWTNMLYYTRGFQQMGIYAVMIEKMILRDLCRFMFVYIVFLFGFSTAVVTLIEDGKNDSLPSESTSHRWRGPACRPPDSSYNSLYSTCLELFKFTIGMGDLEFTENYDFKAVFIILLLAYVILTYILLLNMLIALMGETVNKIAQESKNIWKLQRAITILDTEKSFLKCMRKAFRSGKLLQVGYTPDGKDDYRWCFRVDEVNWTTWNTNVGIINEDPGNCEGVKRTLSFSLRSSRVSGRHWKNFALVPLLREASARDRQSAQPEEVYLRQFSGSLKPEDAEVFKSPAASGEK
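TRPV1-expressing cells were cultured overnight at 35.5C and loaded with Fluo-8 calcium dye for 40 to 90 min at room temperature. After a 10 s baseline, compound was added and calcium influx was read kinetically for 3 min (ex 480/em 520 nm).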
Sfp PPTase inh: blocks B. subtilis Sfp PPTase activity. Q9F4F7. Biochemical Sfp PPTase activity, qHTS. Potency, µM, for the others: max response, negative = inhibition, actives largely listed as inhibitors. hit rate 3.5% among 310,000; active means well fitted inhibition curve with a large enough effect; inconclusive means small, poorly fitted or top-dose-only effect, or another doubt; inactive means no such curve, though single readings can be large or run the other way;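 further: the enzyme is Sfp with the accession as filed and its product quenches rhodamine fluorescence; potency means the concentration at half of the fitted maximal effect; 0% = enzyme reaction without inhibitor and -100% = no enzyme wells; top concentration of the series not given in the record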
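Buffer: 50 mM Hepes-Na pH 7.6, 10 mM MgCl2, 0.01% Nonidet P-40, 0.01% BSA. Enzyme 15 nM, pre-exposed to compound 15 min; substrates then added and fluorescence change tracked over 30 min.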
PINK1 expr mod: changes PINK1 expression; AID 624263; PINK1 immunofluorescence, high-content cytometry, 24 h; hit rate 0.2% among 410,000; Potency, µM (series often up to 76.6 µM), without a hit: at the top dose activation (PINK1 increase), usual class: activators; active = well fitted activation curve with a large enough effect; inconclusive = small, poorly fitted or top-dose-only effect; inactive = flat fitted curve, though single readings scatter; cell line not stated here;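 further: potency means the concentration at half of the fitted maximal effect; % of control where 0% means no effect; nearly all actives have a fitted effect of over 65% in size; a mitochondrial uncoupler was the plate control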
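A stable cell line was treated with compounds at 5 concentrations for 24 hours, with CCCP as control. PINK1 levels and mitochondrial localization were measured by immunofluorescence with mitochondrial, cell and nuclear markers after fixation, read by laser-scanning cytometry.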
TRPML1 agonist: activates the human TRPML1 channel; Q9GZU1; TRPML1-expressing cells, Ca2+ dye fluorescence, FDSS; host cell line not named in the record; reference of the full effect not given here; activation, % (no concentration beside the values); hit rate 0.12% among 410,000; in the data active = activation above about 50%; inconclusive = about 30% to 50%; inactive = below about 30%; further: 0% is about no effect; the text of the record puts the active cut at 80%
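Cells: TRPML1-DL, 1X Tet inducer, ~16 h at 37 degrees C/5% CO2. Dye: ABD Ca8 no-wash + quencher, 45-90 min RT. Read: 10 s baseline, compound add, 110 s agonist phase; 54-4 EC80 (4uM final), 110 s antagonist phase.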
Starred values were filed as active, the others as inactive; ? = inconclusive; . = no result given; [ ] = another dose, or the depositor's remark.

entry | Compound | TRPML1 inh | ClpP mod | TRPML1 agonist | TRPV1 PAM | Menin MLL FP FL | PINK1 expr mod | Sfp PPTase inh
1 | COC(=O)C1C/C(=N/NS(=O)(=O)c2ccc(C)cc2)CS1 (stereo not drawn) | 3 | -9.2% | 2.2 | -6 | . | 1.4% | -16%
2 | O=C(/C=C/c1ccc(NC(=O)c2ccccc2-c2ccccc2C(=O)O)cc1)c1ccccc1 | 14 | -6.4% | 1.0 | -12 | ? | -1.5% | -5%
3 | O=C(CSc1nnc(CN2CCOCC2)n1-c1ccccc1)N1CCc2ccccc21 | -10 | 0.1% | -0.3 | -2 | 2.7 | -0.7% | 11%
4 | Cc1ccc(S(=O)(=O)CCC(=O)Nc2ccc3nc(C)sc3c2)cc1 | 15 | 0.7% | 0.4 | -3 | 9.9 | -0.2% | -2%
5 | Cc1ccc(NS(=O)(=O)c2ccc(NC(=O)c3ccc(-c4ccccc4)cc3)cc2)c(C)c1 | -10 | -4.2% | 0.0 | . | . | 4.7% | .
6 | CN(C)S(=O)(=O)c1ccc(C(=O)Nc2nc(-c3cc4ccccc4o3)cs2)cc1 | -2 | 140% | 1.4 | 6 | 1.1 | 0.3% | 1%
7 | O=C(CCS(=O)(=O)c1ccccc1)OCc1ccc([N+](=O)[O-])cc1 | 6 | -1.6% | 1.7 | -1 | . | 0.6% | 19%
8 | COCc1c(C#N)c(NCc2cc(OC)c(OC)c(OC)c2)nc(C)c1[N+](=O)[O-] | -8 | . | -0.8 | -40 | 3.4 | 0.3% | -22%
9 | CCn1c(N2CCN(S(=O)(=O)CC)CC2)nc2ccccc21 | 10 | -6.3% | 2.2 | 1 | 3.2 | 4.7% | 9%
10 | Cc1cc(C)n(-c2ccc(C(=O)N3CCN(S(=O)(=O)c4cccc(Br)c4)CC3)cc2)n1 | 17 | -1.4% | 3.8 | . | . | 3.7% | .
11 | CCOC(=O)CSc1[nH]c(=O)cc(C)c1C#N | 21 | 2.0% | -0.9 | 7 | 0.0 | -0.7% | 2%
12 | Cc1cccc(CNc2nc(-c3ccc4c(c3)OCO4)nc3ccccc23)c1 | . | . | . | . | 2.7 | 23% | ?
13 | COc1ccccc1[C@H]1C(c2cccc(Cl)c2)=NN(c2ccccc2)[C@@H]1CO | 2 | 4.4% | -1.0 | . | 13 | -1.5% | 20%
14 | Cc1ccc(C(=O)N2CCc3ccccc3C2)cc1S(=O)(=O)N1CCOCC1 | -12 | 1.3% | -0.2 | -10 | -2.4 | 0.9% | 0%
15 | CCCCN1C(=O)C(CC(=O)NCCc2ccccn2)CC(C(=O)N(CC)CC)=C1C (stereo not drawn) | -14 | 1.6% | -0.6 | . | . | 0.6% | .
16 | COc1ccc(/C=C2\SC(=S)N(CC3CCCO3)C2=O)cc1 (stereo not drawn) | 13 | 61% | 1.1 | -9 | 1.6 | 2.9% | -4%
17 | CC(C)Cn1c(N)c(C(=O)COC(=O)c2cccc(Cl)c2)c(=O)n(C)c1=O | -10 | . | 0.4 | 1 | 1.2 | 1.4% | 7%
18 | COc1ccc(NC(=O)CSC2=Nc3ccccc3C3=NC(CCC(=O)NCc4ccc(F)cc4)C(=O)N23)cc1Cl (stereo not drawn) | 4 | -8.4% | 0.5 | . | . | 0.7% | .
19 | CCC(CO)n1cnnc1-c1ccncc1 (stereo not drawn) | -13 | 5.0% | 0.9 | 4 | 0.4 | 1.0% | 4%
20 | CNc1cc(C)nc(-n2nc(C)cc2C)n1 | 4 | 0.2% | 0.7 | 7 | -5.9 | 1.5% | 8%

Taken from above:
Cc1ccc(S(=O)(=O)CCC(=O)Nc2ccc3nc(C)sc3c2)cc1 in TRPV1 PAM has -3
O=C(/C=C/c1ccc(NC(=O)c2ccccc2-c2ccccc2C(=O)O)cc1)c1ccccc1 in Sfp PPTase inh has -5%

(continued)
entry | Compound | TRPML1 inh | ClpP mod | TRPML1 agonist | TRPV1 PAM | Menin MLL FP FL | PINK1 expr mod | Sfp PPTase inh
21 | COCCCn1c(SCC(=O)Nc2nc3ccccc3s2)nnc1-c1ccoc1C | -13 | -1.1% | 1.6 | 0 | -0.8 | -0.8% | 32%[activator]
22 | COc1ccc(N2CCN(C(=O)COC(=O)c3ccc(OC(F)F)cc3)CC2)cc1 | -2 | -1.6% | -0.3 | 12 | . | -0.5% | .
23 | COc1ccc(OC)c2sc(N(Cc3cccnc3)C(=O)c3ccco3)nc12 | 18 | -8.0% | 2.5 | . | . | -1.3% | .
24 | Cc1cc(C)cc(NC(=S)Nc2ccccn2)c1 | 9 | 1.6% | 1.8 | 13 | 7.2 | -0.4% | -6%
25 | CCc1ccc(NC(=O)C(C)OC(=O)c2ccc(NS(=O)(=O)c3ccc(C)c([N+](=O)[O-])c3)cc2)cc1 (stereo not drawn) | 4 | -1.4% | -1.9 | -7 | -2.7 | 45µM* | 33%[activator]
26 | CC(C)[C@H](NC(=O)N1c2ccccc2NC(=O)[C@@H]1C(C)C)C(=O)N1CCC(C(=O)O)CC1 | . | 0.3% | . | -6 | 0.6 | 0.6% | 11%
27 | Cc1ccc(NC(=O)/C=C/c2ccc3c(c2)OCO3)nc1 | -6 | -5.0% | 1.0 | -5 | 1.8 | 0.1% | 4%
28 | Cc1cc(C(=O)N/N=C/c2ccc(N3CCOCC3)cc2)c(C)o1 | 25 | . | 2.0 | -8 | ? | 0.2% | 16%
29 | COc1ccc(/C=C/C(=O)Nc2ccc3c(c2)CCC3)cc1OC | 17 | -20% | 1.9 | -8 | 4.0 | 5.6% | 8%
30 | COc1cccc(-c2nnc(NC(=O)c3ccc4ncsc4c3)o2)c1 | -1 | -11% | -0.1 | -1 | 4.8 | 4.0% | -12%
31 | CC(C)CNC(=O)c1cc(-c2ccc(Cl)c(Cl)c2)on1 | 7 | 0.7% | 0.5 | 5 | -0.1 | 1.7%[38.3 µM] | -17%
32 | Fc1ccc(CSc2nncn2NCc2ccccc2)cc1 | 23 | -0.2% | -1.2 | -11 | 4.2 | -4.6% | 15%
33 | Cc1cc(OCc2cc(C(=O)NCCN3CCCCC3CO)no2)cc(C)c1Cl (stereo not drawn) | 8 | -0.6% | 0.6 | 21 | . | -1.4% | -15%
34 | O=C(Cc1ccc(Cl)cc1)Nc1cccnc1Cl | -7 | 0.8% | -0.6 | . | . | 0.5% | .
35 | CN(C)c1ccc(NC(=O)CCN2C(=O)c3cccc([N+](=O)[O-])c3C2=O)cc1 | -2 | . | -0.9 | 12 | -1.4 | -0.4% | 8%
36 | CCOC(=O)c1cc2c(=O)n3ccccc3nc2n(CC2CCCO2)c1=NC(=O)c1ccccc1OCC (stereo not drawn) | -2 | 3.6% | 0.3 | . | . | 1.2% | .
37 | COc1ccc(/C=C/C(=O)c2cc(Br)ccc2OC(=O)c2ccco2)cc1OC | -3 | . | 0.6 | 6 | 8.7 | 1.1% | -10%
38 | Cc1occc1C(=O)N/N=C/c1c[nH]c2ccccc12 | 3 | -2.2% | -0.2 | 6 | -2.2 | -0.5%[38.3 µM] | 3%
39 | CCc1ccc(OCC(O)CNC(C)(C)C)cc1 (stereo not drawn) | -2 | -0.5% | 0.4 | -7 | 0.1 | ? | 1%
40 | CC(C)(C)c1ccc(C(=O)N2CCCC2)s1 | 10 | 2.0% | 0.8 | 0 | 2.9 | 1.1% | 13%
41 | CN(Cc1ccccc1)C(=O)Cn1nnc(-c2ccccc2)c1COc1ccccc1 | 39 | -2.3% | 2.3 | . | . | 0.0% | .
42 | Cc1c(C(=O)NCc2ccccc2CN2CCCC2)oc2ccccc12 | -21 | . | -0.5 | -2 | . | 0.2% | .
43 | O=C1[C@@H]2CSCN2C(=O)CN1CCc1cccc(F)c1 | -10 | -2.6% | 0.8 | -1 | 5.8 | -2.0% | 3%
44 | COc1cccc(C(=O)c2sc(Nc3ccc(F)c(Cl)c3)nc2N)c1 | 4 | -4.8% | 1.0 | . | . | 1.4% | .
45 | O=C(CSc1nnc(-c2ccncc2)o1)c1cccc([N+](=O)[O-])c1 | 22 | . | 0.7 | 14 | -5.1 | 7.3% | 17%
46 | O=C(CSc1nnc(-c2ccc(S(=O)(=O)N3CCCC3)cc2)o1)NCC1CCCO1 (stereo not drawn) | -9 | . | 1.3 | -9 | 1.1 | -1.9% | 16%
47 | CCOC(=O)c1ccccc1NC(=O)Cn1ncc2c1-c1ccccc1OC2 | -11 | -2.7% | 0.6 | . | . | 0.8% | .
48 | Cc1ccnc(NC(=O)CCNS(=O)(=O)c2ccc(C)c(C)c2)c1 | -3 | 0.5% | 0.4 | ? | . | 0.1% | 10%
49 | CCC(C)NC(=O)CSC1=Nc2ccccc2C2=NC(CCC(=O)NCc3ccco3)C(=O)N12 (stereo not drawn) | 4 | ? | -0.6 | 1 | -0.6 | 0.2% | 23%
50 | COc1ccc(/C=C/c2nc(C#N)c(N3CCN(c4ccccc4)CC3)o2)cc1OC | -2 | -24% | 0.7 | . | . | 0.3% | .
51 | Cc1cc(C)cc(OCc2ccc(C(=O)N3N=C(C(F)F)CC3(O)C(F)F)o2)c1 (stereo not drawn) | 23 | -2.9% | 2.4 | 7 | 3.8 | 4.5% | ?
52 | CCOC(=O)c1c(C)[nH]c(C)c1C(=O)CSc1nc2ccccc2c(=O)n1-c1ccc(Cl)cc1 | -7 | -2.7% | -0.2 | 3 | 9.7 | -1.1% | 7%
53 | Cc1ccc2nc(SCC(=O)Nc3c(F)cccc3F)[nH]c2c1 | 14 | 0.8% | 0.2 | -7 | -2.0 | 0.9% | 11%
54 | CNc1oc(/C=C/c2cccc(OC)c2)nc1C#N | . | 4.3% | . | -36 | -0.8 | -0.8% | 5%
55 | CC(C)(C)CC(=O)Nc1ccc(-c2nnc3n2CCCCC3)cc1 | . | -0.9% | . | 4 | -2.1 | -0.3% | 1%
56 | CC(C)(C)c1ccc(/C=C/C(=O)Nc2cccnc2)cc1 | -4 | -1.9% | -0.4 | -20 | -0.6 | 17% | 4%
57 | CCOC(CNCc1cc(C)c2[nH]c3ccccc3c2c1C)OCC | 4 | -2.0% | 1.8 | . | . | -0.6% | .
58 | COc1ccc(NC(=O)Cn2nnc(C(=O)NCc3ccc(C)cc3)c2N)cc1Cl | 8 | -2.1% | 0.1 | 24 | 5.0 | 2.3% | 4%
59 | CC1(C)N=C(N)N=C(N)N1c1ccc(Oc2ccc(Cl)cc2)c(Cl)c1 | 12 | . | 0.3 | 1 | 3.1 | 2.3% | 1%
60 | O=C(Cn1ccc2ccccc2c1=O)NCCC(=O)N1CCCCC1 | -5 | . | -0.1 | 5 | -0.5 | 2.9% | 16%
